miR-21 reporter: raises the signal of a miR-21 reporter; AID 2288; Potency, µM (series often up to 38.3 µM), for the others: at the highest dose reporter change, positive = more light; HeLa miR-21 FLuc reporter, luciferase, 48 h; 340,000 tested, under 10 active; active = well fitted rising curve with a large enough effect; inconclusive = small, poorly fitted or top-dose-only effect; inactive = no such curve, though single readings can be large or run the other way;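 also: % of control where 0% means no effect; miR-21 action dims this reporter so a rising signal means less miR-21 action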
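Compounds were titrated across several concentrations (up to approximately 40 uM) and incubated 48 hours with HeLa miR-21-FLuc reporter cells (miR-21 target sequence downstream of FLuc, endogenous miR-21). Readout was firefly luciferase luminescence after lytic detection reagent.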
Rango-impB inh: Rango-importin beta binding inhibition; Rango CFP/YFP FRET sensor + importin beta, 45 min; 340,000 tested, 0.031% active; Q14974; Potency, µM (top dose mostly 92.2 µM), for inactives: at the highest dose inhibition of complex formation; AID 540263; active = rising FRET ratio curve, often small or poorly fitted; inconclusive = mostly compound fluorescence or quenching in the first reads; inactive = flat curves in all reads;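 also: potency is read from the fitted curve at half-maximal effect; 0% = DMSO wells and 100% = buffer wells lacking importin beta; nearly all actives have a fitted effect of over 15% in size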
Target sequence (Q14974 whole entry, looked up): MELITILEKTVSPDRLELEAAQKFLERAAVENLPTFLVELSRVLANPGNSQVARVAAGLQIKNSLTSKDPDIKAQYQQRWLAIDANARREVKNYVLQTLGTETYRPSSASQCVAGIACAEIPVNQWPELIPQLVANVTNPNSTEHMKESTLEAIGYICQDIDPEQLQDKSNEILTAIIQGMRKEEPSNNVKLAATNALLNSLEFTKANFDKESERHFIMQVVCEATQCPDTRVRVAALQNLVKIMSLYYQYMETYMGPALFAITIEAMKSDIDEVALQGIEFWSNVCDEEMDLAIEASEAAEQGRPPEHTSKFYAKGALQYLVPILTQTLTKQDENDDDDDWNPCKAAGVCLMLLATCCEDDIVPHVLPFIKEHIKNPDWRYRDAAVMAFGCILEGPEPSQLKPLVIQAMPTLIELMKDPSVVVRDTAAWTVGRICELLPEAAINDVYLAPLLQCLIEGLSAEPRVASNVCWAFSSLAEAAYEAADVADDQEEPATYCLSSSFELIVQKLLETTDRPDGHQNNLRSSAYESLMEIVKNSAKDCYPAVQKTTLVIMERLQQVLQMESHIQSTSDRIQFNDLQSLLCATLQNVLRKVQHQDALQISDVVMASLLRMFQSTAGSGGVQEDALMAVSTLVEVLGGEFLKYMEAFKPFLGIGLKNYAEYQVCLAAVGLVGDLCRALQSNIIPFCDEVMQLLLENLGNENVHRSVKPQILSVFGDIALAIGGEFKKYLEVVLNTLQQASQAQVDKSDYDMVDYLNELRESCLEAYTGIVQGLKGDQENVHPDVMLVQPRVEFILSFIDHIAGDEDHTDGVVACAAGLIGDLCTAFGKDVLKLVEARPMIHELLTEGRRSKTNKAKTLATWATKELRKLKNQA
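FRET biosensor (snurportin 1 IBB flanked by EYFP and cerulean), 50 nM, with compound 5 min, then 0.125 microM importin beta in PBS, 1 mM DTT, 0.02% Tween-20, 0.1% BSA. CFP/YFP ratio read after 45 min at room temperature; pre-read flags interference.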
GLA inh pH 4.5: blocks human alpha-galactosidase A at pH 4.5; P06280; purified enzyme, 4-MU-alpha-Gal fluorescence, pH 4.5; activity change, negative = inhibition, % at 105 µM; 230,000 tested, under 10 active; inconclusive = small, poorly fitted or top-dose-only inhibition, or a rising curve; inactive = flat fitted curve, though single readings scatter; no compound was filed as active;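 also: 0% = full activity with enzyme and -100% = basal without enzyme; dose as in the result columns while the protocol names 77 µM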
Rango dissoc inh: inhibition of RanGTP-driven Rango-importin beta dissociation. O95149+P62826. AID 540253. 340,000 tested, 0.071% active. Potency, µM (top dose mostly 46.1 µM), for the others: at the top dose activity change, negative = inhibition. Biochemical FRET Rango-importin beta, RanGTP-induced dissociation; active means falling FRET ratio curve, often poorly fitted, with flat reads before Ran was added; inconclusive means other falling curves, or compound fluorescence or quenching; inactive means flat or rising ratio curve;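 also: potency is read from the fitted curve at half-maximal effect; % of control where 0% means no effect; nearly all actives have a fitted effect of over 45% in size; -100% = wells without RanGTP and RCC1; the record marks most hits as doubtful in a second field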
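Two FRET readings bracket the reaction: one 5 min after compound meets Rango–importin beta, another 45 min after RanGTP-RCC1 (0.6 uM Ran, 0.2 uM RCC1, 2 mM GTP) is added. Only the second defines inhibition.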
* hit, by the source's call; ? = inconclusive; · = no result given. A portion of the library (hit frequency here may not be typical).

Second line of a record: miR-21 reporter, Rango-impB inh, GLA inh pH 4.5, Rango dissoc inh
CCC(=O)Nc1ccc(-c2nnc(SCC(=O)Nc3nccs3)n2C)cc1
 : -0.4%, -3.4%, 6.2, -11.8%
COc1ccc(C(=O)NC(=S)Nc2cccnc2)cc1[N+](=O)[O-]
 : 2.9%, 1.4%, 6.8, -2.7%
CC(C)C(C(=O)NCC1CCCO1)N(C(=O)CNS(=O)(=O)c1ccc(F)cc1)c1ccccc1 (stereo unspecified)
 : -4.1%, 1.4%, ·, -6.2%
COc1ccccc1Nc1nc(C)cc(=O)[nH]1
 : 0.2%, 9.5%, -15.9, 11.6%
O=C(C1=C[C@H](c2ccccc2)C[C@H](OCc2ccc(CO)cc2)O1)N1CCN(Cc2ccccc2)CC1
 : 11.3%, -1.0%, -2.0, 8.3%
CC(=O)c1ccc(NC(=O)c2ccccc2Sc2ncnc3sc(C)c(C)c23)cc1
 : -15.9%, 0.9%, -6.3, -12.9%
Cc1cccc(N(CC(=O)N2CCN(c3ccccc3F)CC2)S(C)(=O)=O)c1
 : -0.5%, -2.2%, 2.6, -2.0%
COCCn1c(N)c(Sc2ccc(C)cc2)c(=O)[nH]c1=O
 : 5.1%, 0.1%, ·, -12.7%
CC1=Nc2ccc(Br)cc2C(c2ccccc2)N1CC(=O)NN (stereo unspecified)
 : 1.1%, 6.8%, -13.0, 15.1%
C/C(=N\NC(=O)c1ccc(Cl)cc1)c1cccs1
 : -12.5%, -4.0%, -1.0, 1.7%
COCCn1c(SCC(=O)Nc2ccc(F)cc2)nc2ccccc2c1=O
 : -4.3%, -1.7%, ·, -8.4%
O=C(C[C@@H]1C/C=C\C[C@H](Cc2ccc(F)cc2)C(=O)OC[C@@H](c2ccccc2)NC1=O)NCCO
 : ·, 0.1%, ·, 0.2%
N#C/C(=C\c1c(Oc2ccccc2F)nc2ccccn2c1=O)C(=O)NC1CCS(=O)(=O)C1 (stereo unspecified)
 : 13.4%, ?, ·, ?
CN(C)S(=O)(=O)N1CCC(Oc2cccc(C(=O)N3CCSCC3)c2)CC1
 : 2.1%, -0.2%, ·, 8.9%
CC(C)CCNC(=O)CN(C(=O)CCC(=O)Nc1ccccn1)c1ccc2c(c1)OCCO2
 : -18.7%, 2.1%, -4.4, 3.5%
O=C(NS(=O)(=O)Oc1ccc(F)c(Cl)c1)OC[C@@H]1CCCN2CCCCC12 (stereo partly specified)
 : 0.9%, -0.7%, 7.4, 24.0%
O=C(COC(=O)C12CC3CC(CC(Br)(C3)C1)C2)NNC(=O)c1ccccc1
 : ·, 1.9%, ·, -10.5%
COC(F)(C(=O)Nc1ccc2c(c1)C(=O)NC2=O)C(F)(F)F (stereo unspecified)
 : -0.7%, 0.6%, -20.9, 10.7%
C/C(=N\NC(=O)CN(c1ccccc1Br)S(C)(=O)=O)c1cccs1
 : 0.4%, ?, -8.3, -5.2%
O=C(CSc1ccccc1)NNC(=O)c1ccncc1
 : ·, 3.4%, ·, 0.3%
Cc1ccc(/C(O)=C2/C(=O)C(=O)OC2c2ccc(Cl)cc2)cc1 (stereo unspecified)
 : -18.0%, 2.1%, -3.3, 16.8%
N#CCOc1ccc2oc(-c3ccco3)cc(=O)c2c1
 : 0.8%, ·, 3.6, ·
COc1ccc(OC)c(N(CC(=O)N2CCN(Cc3ccccc3)CC2)S(C)(=O)=O)c1
 : -2.4%, 1.6%, ·, 1.2%
O=C(/C=C\N1CCOCC1)c1ccc(Br)cc1
 : -25.7%, -3.7%, ·, -18.9%
Cc1ccc(-c2cnn(-c3cccc([N+](=O)[O-])c3)c2N)cc1
 : -34.4%, 0.9%, 1.0, 4.0%
O=C1C(Cl)=C(Nc2ccc(F)cc2)C(=O)N1CCc1ccccc1
 : -38.9%, ?, -3.1, ?
CCOc1ccc(OCCOC(=O)CN(C)S(=O)(=O)c2ccc(NC(C)=O)cc2)cc1
 : ·, 1.9%, ·, -2.0%
COc1ccc(-n2c(COc3cccc4ccccc34)nnc2SCC#N)cc1
 : -3.1%, -0.8%, 2.7, -3.4%
O=C(O)c1ccccc1NC(=O)N1CCOCC1
 : 0.2%, -5.6%, 0.2, -4.0%
COc1cc(OC)cc(C(=O)NC(C(=O)NNC(=O)c2cc(Cl)ccc2OC)C(C)C)c1 (stereo unspecified)
 : ·, -0.5%, ·, -5.1%
CCC1(c2ccccc2)NC(=O)N(CC(=O)Nc2ccc(S(=O)(=O)Nc3ncccn3)cc2)C1=O (stereo unspecified)
 : ·, -2.0%, ·, -10.5%
O=C(C1=C(O)C(=O)N(c2ncccn2)C1c1cccs1)c1ccco1 (stereo unspecified)
 : -0.4%, ?, -8.4, ?
Cc1ccc(NC(=O)NN2CCOCC2)cc1
 : -25.6%, -0.9%, 1.6, -13.4%
CN(C)S(=O)(=O)c1ccc(C(=O)OCC(=O)Nc2cccnc2Cl)cc1
 : 1.9%, 3.7%, 4.0, 1.0%
CC1CC1C(=O)OCC(=O)Nc1ccc(S(=O)(=O)N2CCOCC2)cc1 (stereo unspecified)
 : ·, 0.5%, ·, -4.1%
COc1ccc(CNC(=O)Cn2nc(-c3ccc4c(c3)OCCO4)ccc2=O)cc1
 : -1.9%, -1.1%, -7.4, -0.6%
CCOC(=O)/C=c1\s/c(=C\c2ccc(C(F)(F)F)cc2)c(=O)n1CC(=O)NCc1ccco1
 : -1.5%, -2.2%, 6.5, 15.8%
Brc1cccc(/C=N/Nc2nc(N3CCCCC3)nc(N3CCCCC3)n2)c1
 : -0.2%, ·, 9.2, ·
Cc1cc(=O)[nH]c(-c2cccnc2)n1
 : 0.7%, 6.0%, 0.1, 21.4%
O=C1N(Cc2ccccc2)c2ccccc2C12OCCO2
 : -0.5%, -0.5%, ·, -4.4%

3 successive records out of the list so far:
Second line of a record: miR-21 reporter, Rango-impB inh, GLA inh pH 4.5, Rango dissoc inh
Cc1ccc(/C(O)=C2/C(=O)C(=O)OC2c2ccc(Cl)cc2)cc1 (stereo unspecified)
 : -18.0%, 2.1%, -3.3, 16.8%
N#CCOc1ccc2oc(-c3ccco3)cc(=O)c2c1
 : 0.8%, ·, 3.6, ·
COc1ccc(OC)c(N(CC(=O)N2CCN(Cc3ccccc3)CC2)S(C)(=O)=O)c1
 : -2.4%, 1.6%, ·, 1.2%

Back to the main list, starting 2 compounds before the break.
Second line of a record: miR-21 reporter, Rango-impB inh, GLA inh pH 4.5, Rango dissoc inh
Cc1cc(=O)[nH]c(-c2cccnc2)n1
 : 0.7%, 6.0%, 0.1, 21.4%
O=C1N(Cc2ccccc2)c2ccccc2C12OCCO2
 : -0.5%, -0.5%, ·, -4.4%
COC(=O)C1=C(SC)N(c2ccccc2)C(c2ccccc2)CC1=O (stereo unspecified)
 : 7.0%, -0.9%, 5.7, -0.4%
CC1CCCN(Cc2c(O)ccc3c4c(c(=O)oc23)CCCC4)C1 (stereo unspecified)
 : -17.7%, ?, ?, ?
Cc1cc(C)n(CC(=O)N2CCCC(N3CCN(c4ccccc4C)CC3)C2)n1 (stereo unspecified)
 : -1.6%, -4.4%, ·, -0.8%
O=C(NCCO)C(=O)Nc1cc2c3c(c1)CC(=O)N3CCC2
 : -1.9%, 3.8%, ·, ?
COc1ccc(-c2nc(N)c(C#N)c(-c3cccnc3)c2C)cc1
 : -1.0%, -0.8%, -4.1, 9.3%
CCNC(=S)Nc1cccc(NC(=O)c2ccccc2O)c1
 : -13.3%, -0.5%, 0.9, 18.7%
CCOc1cc(C(=O)Nc2ccccc2N2CCOCC2)ccc1OCC(=O)N1CCOCC1
 : ·, 0.6%, ·, -7.1%
CCc1nnc(NS(=O)(=O)c2ccc(NC(=O)CCC(=O)O)cc2)s1
 : 1.4%, -4.0%, ·, 2.2%
O=C(Cc1ccccc1)N/N=C/C=C/c1ccccc1[N+](=O)[O-]
 : -39.4%, ?, -2.7, 0.0%
COc1ccc(/C=N/NC(=O)c2cccnc2)cc1CSc1ccccn1
 : 18.3%, ?, -2.9, 8.9%
O=C(NCCC1CCCC1)C1CCC(=O)N(CCCN2CCCC2=O)C1 (stereo unspecified)
 : -6.1%, -0.4%, ·, 12.0%
COc1ccc2c(CC(=O)NCc3ccc4c(c3)OCO4)coc2c1
 : -7.0%, -5.8%, -4.7, 17.9%
CCOC(=O)c1c(C)nc(SCC(N)=O)c(C#N)c1-c1ccccc1
 : -17.7%, 0.5%, 6.7, 2.2%
C(=NN=C(NN=Cc1cccs1)NN=Cc1cccs1)c1cccs1
 : ·, 7.0%, ·, 14.9%
Cc1cc(C(=O)COc2nncc3ccccc23)c(C)n1C
 : -16.7%, 0.8%, 3.2, -8.4%
Clc1ccc2c(c1)c1cc(Cl)ccc1n2CN1CCOCC1
 : 1.4%, -1.5%, -20.6, -7.9%
Cc1ccc(NC(=S)NNC(=O)c2nn(C)c(C)c2Cl)cc1
 : -73.3%, 0.4%, 1.2, 10.0%
COC(=O)C(N)Cc1ccc(Cl)cc1 (stereo unspecified)
 : ·, 1.0%, -1.2, 10.4%
CCN(c1ccccc1)S(=O)(=O)c1nnc(NC(=O)CC(C)C)s1
 : 1.0%, 3.3%, ·, -9.0%
CCCCn1c(SCC(=O)NC2CCS(=O)(=O)C2)nnc1-c1ccc(OC)cc1 (stereo unspecified)
 : ·, 1.8%, ·, 9.2%

Entries of single compounds, looked up by structure:
Listed for `O=C(COC(=O)C12CC3CC(CC(Br)(C3)C1)C2)NNC(=O)c1ccccc1` → miR-21 reporter: ·; Rango-impB inh: 1.9%; GLA inh pH 4.5: ·; Rango dissoc inh: -10.5%
Listed for `CCc1nnc(NS(=O)(=O)c2ccc(NC(=O)CCC(=O)O)cc2)s1` → miR-21 reporter: 1.4%; Rango-impB inh: -4.0%; GLA inh pH 4.5: ·; Rango dissoc inh: 2.2%

(list continues)
Second line of a record: miR-21 reporter, Rango-impB inh, GLA inh pH 4.5, Rango dissoc inh
O=C(Nc1ccccc1-c1ccccc1)c1cccs1
 : 0.7%, 0.2%, -9.1, 0.9%
COc1ccccc1NC(=O)C1CCCN1C(=O)NCc1ccccc1 (stereo unspecified)
 : -4.3%, -4.1%, -8.4, 1.5%
O=C(O)C1CC=CCC1C(=O)Nc1ccccc1Cl (stereo unspecified)
 : -3.0%, 0.4%, 4.1, -9.3%
CC(=O)c1ccc(Cc2cnc(N)s2)cc1
 : -12.8%, -4.1%, -4.2, -7.7%
Cc1cc(OCC(=O)N2CCN(c3ccc(F)cc3)CC2)c2c(C)cc(=O)oc2c1
 : 3.4%, 3.1%, ·, 14.0%
CCOc1cc(/C=C/C(=O)OCC(=O)NC2CCS(=O)(=O)C2)ccc1OCc1ccccc1 (stereo unspecified)
 : -5.5%, 3.4%, -0.1, 10.3%
CCCCSc1nnc(-c2ccc(C)cc2)o1
 : -35.1%, -0.5%, 0.4, 1.2%
CNC(=O)Cn1c(C)cc(=O)c2cccc(OC)c21
 : -7.8%, 3.7%, -13.5, -1.8%
CC1CCCC(NC(=O)COC(=O)COc2cccc(F)c2)C1C (stereo unspecified)
 : ·, -0.6%, ·, 4.9%
CCOC(=O)N1CCC(N(C(=O)Nc2ccc(CC)cc2)C(C)CC)CC1 (stereo unspecified)
 : -27.9%, 4.2%, -6.2, -6.1%
CCCCn1cnc2c(c(CC#N)nn2-c2ccccc2)c1=N
 : ·, -0.3%, ·, 1.6%

Screening data from PubChem BioAssay.
